GLA inh pH 4.5: alpha-galactosidase A (human) inhibition, pH 4.5; purified enzyme, 4-MU-alpha-Gal fluorescence, pH 4.5; P06280; activity change, negative = inhibition, % at 105 µM; AID 1467; 230,000 tested, under 10 active; inconclusive = small, poorly fitted or top-dose-only inhibition, or a rising curve; inactive = flat fitted curve, though single readings scatter; no compound was filed as active;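 note: 0% = full activity with enzyme and -100% = basal without enzyme; dose as in the result columns while the protocol names 77 µM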
miR-21 FLuc: raises the signal of a miR-21 reporter | HeLa miR-21 FLuc reporter, luciferase, 48 h | Potency, µM (top dose mostly 38.3 µM), inactives show top-dose reporter change, positive = more light | 340,000 tested, under 10 active; active = well fitted rising curve with a large enough effect; inconclusive = small, poorly fitted or top-dose-only effect; inactive = no such curve, though single readings can be large or run the other way;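 note: % of control where 0% means no effect; miR-21 action dims this reporter so a rising signal means less miR-21 action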
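Compounds were titrated across several concentrations (up to approximately 40 uM) and incubated 48 hours with HeLa miR-21-FLuc reporter cells (miR-21 target sequence downstream of FLuc, endogenous miR-21). Readout was firefly luciferase luminescence after lytic detection reagent.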
Rango-impB inh: inhibitors of Rango-importin beta complex formation. Q14974. Rango CFP/YFP FRET sensor + importin beta, 45 min. Potency, µM (highest dose often 92.2 µM), for the others: at the top dose inhibition of complex formation. actives 0.031% (n = 340,000); active = rising FRET ratio curve, often small or poorly fitted; inconclusive = mostly compound fluorescence or quenching in the first reads; inactive = flat curves in all reads;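 note: potency is the fitted concentration of half-maximal effect; 0% = DMSO wells and 100% = buffer wells lacking importin beta; nearly all actives have a fitted effect of over 15% in size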
Target sequence (Q14974 whole entry, looked up): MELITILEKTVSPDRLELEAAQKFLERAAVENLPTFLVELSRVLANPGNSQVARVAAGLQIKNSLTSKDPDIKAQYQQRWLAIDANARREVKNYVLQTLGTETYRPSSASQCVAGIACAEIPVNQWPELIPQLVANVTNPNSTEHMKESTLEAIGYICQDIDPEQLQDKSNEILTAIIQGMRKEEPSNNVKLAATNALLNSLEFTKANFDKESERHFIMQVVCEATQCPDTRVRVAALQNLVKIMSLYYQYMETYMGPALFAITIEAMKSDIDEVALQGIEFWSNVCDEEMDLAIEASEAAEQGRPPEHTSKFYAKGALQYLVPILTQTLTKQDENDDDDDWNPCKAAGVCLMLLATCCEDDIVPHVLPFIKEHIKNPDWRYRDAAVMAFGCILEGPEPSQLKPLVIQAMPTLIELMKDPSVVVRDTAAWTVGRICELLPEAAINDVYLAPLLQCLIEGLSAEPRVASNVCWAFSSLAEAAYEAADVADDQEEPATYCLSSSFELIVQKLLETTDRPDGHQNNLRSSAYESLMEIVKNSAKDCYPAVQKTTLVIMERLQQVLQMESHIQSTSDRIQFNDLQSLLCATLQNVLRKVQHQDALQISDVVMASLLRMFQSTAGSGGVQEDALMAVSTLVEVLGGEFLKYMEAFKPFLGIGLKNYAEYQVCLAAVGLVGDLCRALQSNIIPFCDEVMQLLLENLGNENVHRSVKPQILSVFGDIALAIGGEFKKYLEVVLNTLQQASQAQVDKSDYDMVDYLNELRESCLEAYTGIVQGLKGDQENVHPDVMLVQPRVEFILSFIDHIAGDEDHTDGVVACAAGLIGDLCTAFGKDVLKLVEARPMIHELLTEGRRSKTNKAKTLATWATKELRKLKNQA
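FRET biosensor Rango (snurportin 1 IBB between N-terminal EYFP and C-terminal Cerulean), 50 nM in PBS/1 mM DTT/0.02% Tween-20/0.1% BSA, preincubated 5 min RT with compound; 0.125 microM importin beta added, 45 min RT, CFP/YFP FRET ratio read.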
Rango release inh: prevents RanGTP from dissociating the Rango-importin beta complex; Biochemical FRET Rango-importin beta, RanGTP-induced dissociation; AID 540253; Potency, µM (highest dose often 46.1 µM), for inactives: at the highest dose activity change, negative = inhibition; O95149+P62826; actives 0.071% (n = 340,000); active means falling FRET ratio curve, often poorly fitted, with flat reads before Ran was added; inconclusive means other falling curves, or compound fluorescence or quenching; inactive means flat or rising ratio curve;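 note: potency is the fitted concentration of half-maximal effect; % of control where 0% means no effect; nearly all actives have a fitted effect of over 45% in size; -100% = wells without RanGTP and RCC1; the record marks most hits as doubtful in a second field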
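Rango/importin beta premix (0.1/0.25 uM final), PBS + 1 mM DTT + 0.02% Tween-20 + 0.1% BSA; cpd 5 min RT; FRET pre-read; + RanGTP-RCC1 (0.6 uM Ran, 2 mM GTP, 0.2 uM RCC1); 45 min RT; FRET post-read, ex 430, em 486/530 nm.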
Active calls of the source: *; ? = inconclusive; / = not tested or not shown. Not all compounds are listed; count on the stated rates, not on these rows.

SMILES,GLA inh pH 4.5,miR-21 FLuc,Rango-impB inh,Rango release inh
COC(=O)c1ccccc1CON1C(=O)C(C)(C)N(OCc2ccccc2C(=O)OC)C(=O)C1(C)C,0,2%,4.6%,0%
COc1ccc2[nH]c3c(c2c1)CCNC3=O,2,/,-1.9%,-19%
N#Cc1c(SCc2c(Cl)cccc2Cl)nc(N)[nH]c1=S,/,/,6.1%,8%
Cn1c(-c2ncc(F)cc2F)cc2onc(-c3c(F)cccc3Cl)c2c1=O,/,/,-0.4%,9%
Cc1nnc(NC(=O)CCCN2C(=O)c3ccccc3C2=O)s1,-2,1%,1.4%,-1%
CCN(CC)S(=O)(=O)c1ccc(N=Nc2c(C)[nH]n(C(N)=S)c2=O)cc1,-19,-51%,0.1%,16%
O=C(Cn1nnc(-c2ccc3c(c2)OCO3)n1)NCc1ccccc1,-6,-2%,8.2%,-3%
CS(=O)(=O)N(CC(=O)NCc1ccco1)c1ccc2c(c1)OCO2,1,-5%,1.1%,4%
Cc1ccc(O)c(NC(=O)c2cc(C)no2)c1,/,-2%,-2.6%,-2%
CCOc1ccc(S(=O)(=O)n2nc(C)cc2C)c2ccccc12,-11,-16%,6.1%,-11%
CCOC(=O)c1[nH]c(C=O)c(C(=O)OCC)c1C,-12,8%,2.8%,23%
C=CCNC(=O)/C(=C\c1ccc([N+](=O)[O-])cc1)NC(C)=O,1,-2%,4.1%,39%

Taken from above.
CCN(CC)S(=O)(=O)c1ccc(N=Nc2c(C)[nH]n(C(N)=S)c2=O)cc1 – Rango-impB inh: 0.1%
C=CCNC(=O)/C(=C\c1ccc([N+](=O)[O-])cc1)NC(C)=O – miR-21 FLuc: -2%
O=C(Cn1nnc(-c2ccc3c(c2)OCO3)n1)NCc1ccccc1 – Rango-impB inh: 8.2%
Cc1nnc(NC(=O)CCCN2C(=O)c3ccccc3C2=O)s1 – Rango-impB inh: 1.4%
N#Cc1c(SCc2c(Cl)cccc2Cl)nc(N)[nH]c1=S – Rango-impB inh: 6.1%

(continued)
SMILES,GLA inh pH 4.5,miR-21 FLuc,Rango-impB inh,Rango release inh
CCCn1c(C)cc(C(=O)COc2ccc(S(=O)(=O)N(CC)CC)cc2[N+](=O)[O-])c1C,8,1%,2.1%,9%
CC(C)C(=O)Nc1cccc(C(=O)Nc2nncs2)c1,2,-11%,-5.9%,10%
CCNC(=O)CC1C(=O)N(c2ccccc2)C(=O)N1CCC(C)C (centres undefined),-17,5%,1.2%,10%
Cc1ccc(Oc2nccc(-c3ccc(Cl)cc3)n2)cc1,6,-15%,4.3%,9%
CS(=O)(=O)N(CC(=O)N1CCN(c2ccccc2)CC1)c1ccccc1Cl,/,/,2.5%,?
CCN(CC)C(=S)Nc1ccc(Cl)c(Cl)c1,-7,-3%,-1.5%,-1%
CC(=O)N1CCC2(CC1)CC(=O)c1cc(OCC(=O)NCc3ccco3)ccc1O2,7,-3%,-1.6%,16%
C=CCn1c(CNc2ccc(C)cc2)nnc1SCC(=O)N/N=C/c1ccc(O)cc1O,3,-4%,-2.1%,-21%
O=C(NC(=S)Nc1ccccn1)c1ccc([N+](=O)[O-])cc1,1,-52%,3.1%,-28%
O=[N+]([O-])c1ccc(N2CCN(c3cccc(Cl)c3)CC2)cn1,/,3%,-3.0%,3%
COc1ccc(C(=O)/C=C/c2ccccc2F)c(OC(=O)c2ccc([N+](=O)[O-])cc2)c1,3,-33%,-1.0%,22%
NC(=O)CCN1CCCCC1,-11,3%,-4.0%,-9%
C#CC1(O)CCCC2C3CCC4CC(OC(C)=O)CCC4(C)C3C(=O)CC21C (centres undefined),/,/,-0.9%,-4%
COC(=O)C1SCC2C(=O)N(Cc3ccccc3)CC(=O)N21 (centres undefined),-12,0%,1.0%,-11%
CCOc1ccc2ncc(S(=O)(=O)c3ccccc3)c(N3CCN(c4ccc(OC)cc4)CC3)c2c1,1,0%,0.0%,3%
O=c1cc(CSc2ccc(Cl)cc2)nc(N2CCCCC2)[nH]1,5,-3%,-3.6%,1%
CCN1CCN(CCNC(=O)CCc2c(C)c3c(C)nn(-c4ccccc4)c3n(C)c2=O)CC1,/,-7%,1.5%,-11%
Cc1ccn(CC(=O)N2CCCC(N3CCN(c4ccccc4F)CC3)C2)n1 (centres undefined),/,-1%,10%,-1%
CCOC(=O)[C@@H]1[C@H]2COc3cc(OC)ccc3[C@H]2N2C(=O)N(c3ccc(C)cc3)C(=O)[C@@]12C,/,0%,0.8%,-8%
O=C(Nc1ccccc1)n1cc(-c2ccccn2)c(N2CCOCC2)n1,-3,-12%,-0.2%,19%
CC1CCCC(N2CCN(C(=O)c3cccc(F)c3)CC2)C1 (centres undefined),1,-6%,4.4%,-9%
O=Cc1ccc(O)c2ncccc12,-4,?,?,?
Cc1nc2sc3c(c2c(=O)[nH]1)CCCC3,-17,-8%,-0.3%,-8%
CC(C)NC(=O)C1CCN(C2CCN(C(=O)/C=C/c3cccs3)CC2)CC1,-6,-5%,-0.2%,-8%

(next part)
smiles | GLA inh pH 4.5 | miR-21 FLuc | Rango-impB inh | Rango release inh
COCc1cc(C)nc(SCC(=O)Nc2cccc(C)c2C)c1C#N | -2 | 1% | -3.7% | -5%
CC(C)c1ccc(S(=O)(=O)N2CCN(CC(=O)Nc3ccc4c(c3)OCO4)CC2)cc1 | -14 | 20% | 4.8% | 13%
CCCCc1ccc(/C(C)=N/Nc2cc(N3CCOCC3)nc(C)n2)cc1 | / | 8% | 0.2% | 9%
COc1cc(C(=O)N/N=c2/sc3ccccc3n2C)cc(OC)c1OC | -1 | -5% | 4.9% | 15%
COc1ccc(CN2CCN(c3cccc(C)c3C)CC2)cc1OC | -1 | 5% | 1.5% | 7%
CC(CN1CCCCC1)OC(=O)c1ccc(Cl)cc1Cl (centres undefined) | -16 | 2% | 3.5% | -2%
O=C1NC(=S)N/C1=C/c1cccc2ccccc12 | / | -63% | 6.1% | 11%
O=C(c1ccco1)N1CCN(C(=O)c2ccccc2OC(=O)C23CC4CC(CC(C4)C2)C3)CC1 | -3 | -23% | ? | 7%
Cc1ccc(C)c(OC(=O)c2cncc(Br)c2)c1 | 5 | -6% | 9.4% | 19%
CC1Cc2ccccc2N1S(=O)(=O)c1cccs1 (centres undefined) | -9 | 3% | -2.6% | -9%
COc1ccc(C(=O)c2c3ccc(OC)cc3[n+]([O-])n2Cc2ccc(C(N)=O)cc2)cc1 | / | / | -0.2% | -3%
CCOC(=O)C(C)On1c(-c2cccc(Cl)c2)nc2ccc([N+](=O)[O-])cc21 (centres undefined) | -5 | 1% | -4.2% | -3%
Cc1cc(NC(=O)CSc2nnc(Nc3ccccc3)s2)no1 | 3 | -1% | 5.8% | 9%
Cc1ccc(S(N)(=O)=O)cc1NC(=O)C1CC2CCC1C2 (centres undefined) | -2 | 0% | -1.6% | -1%
O=C(CNC(=O)C1CCCCC1)OCC(=O)c1ccc(F)cc1 | / | / | -1.6% | 8%
O=C(c1ccccc1NS(=O)(=O)c1cccc2cccnc12)N1CCOCC1 | 7 | -2% | 4.5% | 0%
Cc1ccc(Nc2nnc(SCC3CCCCO3)s2)cc1 (centres undefined) | -4 | -37% | -4.6% | 28%
C=CCc1c(C)[nH]c2c(OC)cccc2c1=S | -20 | -4% | -4.7% | 5%
C[C@@]12C(=O)N(c3ccc(Cl)cc3)C(=O)N1[C@@H]1c3ccccc3OC[C@@H]1[C@H]2c1ccccc1 | / | / | 0.0% | -2%
CCOC(=O)N1CCC(N2Cc3cccc(C(=O)NC(C)c4ccc5c(c4)OCCO5)c3C2=O)CC1 (centres undefined) | -7 | 1% | 3.2% | -6%
O=Cc1cn(CCC(=O)O)nc1-c1cccc(Br)c1 | 3 | -1% | 2.7% | 9%
O=C(CCN1CCCCCC1)Nc1cccc(Cl)c1 | 3 | -4% | 4.2% | 14%
CCN(CC)C(=O)C1CCCN(Cc2nc(-c3cccs3)no2)C1 (centres undefined) | -13 | -5% | 0.9% | 6%
COc1ccc(NC(=O)CCC(=O)N2CCC(c3ccccc3)=N2)cc1S(=O)(=O)N1CCCCC1 | / | / | -0.1% | 1%
N#CC1=C(N)Oc2cc(O)c(Cl)cc2C1c1cccnc1 (centres undefined) | / | 0% | ? | ?
O=C(/C=C/c1ccco1)NC(=S)Nc1ccccc1 | / | -10% | 0.8% | 10%
COC(=O)/C(=C\c1ccc([N+](=O)[O-])cc1)NC(=O)c1ccccc1 | / | / | 0.4% | 2%
COC(=O)C(=C/C(C)=C/c1cccs1)C(=O)OC | -9 | 26% | 0.3% | -19%
CCOCCn1ccc2c(OCC(=O)NCc3ccccc3)cccc2c1=O | / | / | -4.3% | 12%
CCCCN(C(=O)CC1CCCC1)c1c(N)n(CCCC)c(=O)[nH]c1=O | / | / | -2.3% | 1%
COc1ccc(-c2cc(C(=O)N/N=C/c3ccc(OC)c(COCC(F)(F)C(F)F)c3)c3ccccc3n2)c(OC)c1 | -6 | -4% | 0.0% | -17%
CCOc1cc(C(=S)N2CCCC2)ccc1O | / | 0% | -0.1% | 0%
C=CCn1c(SCc2nc3cc(C(=O)OC)ccc3c(=O)[nH]2)nc2sc(CC)cc2c1=O | -12 | 1% | -0.8% | 19%
O=C(Nc1nnc(COc2ccccc2)s1)Nc1ccccc1F | 3 | 0% | -1.5% | 1%
O=c1[nH][nH]c(-c2ccccc2)c1-c1ccccc1 | / | / | -1.0% | 3%
CN(C(=O)c1ccc2c(c1)OCO2)C1(C)CCS(=O)(=O)C1 (centres undefined) | / | / | 0.1% | -10%
COc1cc(SC#N)ccc1N=Cc1c(C)[nH]n(-c2ccc(C)cc2)c1=O | -2 | -6% | ? | -9%
CCOC(=O)CCC(=O)NCc1ccc2c(c1)cc(C)n2C | 4 | 1% | ? | ?
O=C(CCN1CCN(c2ccccc2)CC1)Nc1ccc(OCc2ccccc2)cc1 | -6 | -6% | 0.4% | -3%
Cc1ccc(-n2nc(C(=O)O)nc2-c2ccccc2)cc1 | 4 | 0% | -0.6% | 0%
COc1cc2cnc(-c3ccccc3)c(-c3ccc(C(F)(F)F)cc3)c2cc1OC | / | / | 0.3% | -7%
Cc1cc(C)cc(N(C(=O)c2ccco2)C(C(=O)NC2CCCC2)c2ccncc2)c1 (centres undefined) | / | 0% | -0.4% | -18%
CCCn1c(=O)c(C(=O)Nc2ncccc2O)c(O)c2ccccc21 | / | 0% | 0.3% | -1%
CCC(=O)c1ccc(OCC(O)CN(C)C2CCCCC2)cc1 (centres undefined) | -7 | -4% | 0.4% | -18%
O=C1OCC/C1=C\c1ccccc1O | 1 | -1% | ? | -3%

4 of the entries above in order of the Rango release inh value, smallest number first.
smiles | GLA inh pH 4.5 | miR-21 FLuc | Rango-impB inh | Rango release inh
Cc1cc(C)cc(N(C(=O)c2ccco2)C(C(=O)NC2CCCC2)c2ccncc2)c1 (centres undefined) | / | 0% | -0.4% | -18%
CN(C(=O)c1ccc2c(c1)OCO2)C1(C)CCS(=O)(=O)C1 (centres undefined) | / | / | 0.1% | -10%
O=C(CCN1CCN(c2ccccc2)CC1)Nc1ccc(OCc2ccccc2)cc1 | -6 | -6% | 0.4% | -3%
Cc1ccc(-n2nc(C(=O)O)nc2-c2ccccc2)cc1 | 4 | 0% | -0.6% | 0%

(listing goes on)
smiles | GLA inh pH 4.5 | miR-21 FLuc | Rango-impB inh | Rango release inh
Clc1ccc(C2=NNC(=NCc3ccc4c(c3)OCO4)SC2)cc1 | 4 | 27% | -2.7% | 36%
Cc1cc(Br)ccc1NC(=O)CNC(=O)COc1ccccc1C | / | / | 2.3% | ?
CC1CC1C(=O)OCC(=O)NC(=O)c1ccccc1 (centres undefined) | / | / | 1.5% | -14%
COc1c(C=O)cc2c3c1CCCN3CCC2 | / | 7% | 0.4% | 5%
COc1ccccc1NC(=O)C(=O)NCCC1CCCCN1S(=O)(=O)c1cccs1 (centres undefined) | / | / | -1.3% | -2%
COc1ccc(C2CC(c3ccc4ccccc4c3)=NN2C(=O)COC(=O)C2CCC(=O)N2)cc1 (centres undefined) | -5 | -51% | 5.0% | 12%
Cc1cccc(C(=O)OCC(=O)c2cccc(Br)c2)c1O | / | -3% | 7.5% | -6%

Screening data as filed in PubChem.
